Assay outcomes: PubChem, National Center for Advancing Translational Sciences (NCATS)
TRPML1 ag = human mucolipin-1 channel agonism | TRPML1-expressing cells, Ca2+ dye fluorescence, FDSS; host cell line not named in the record; reference of the full effect not given here | Q9GZU1 | activation, % (test concentration not listed) | AID 624414 | actives 0.12% (n = 410,000); in the data active = activation above about 50%; inconclusive = about 30% to 50%; inactive = below about 30%; note: 0% is about no effect; the text of the record puts the active cut at 80%
Target sequence (Q9GZU1 whole entry, looked up): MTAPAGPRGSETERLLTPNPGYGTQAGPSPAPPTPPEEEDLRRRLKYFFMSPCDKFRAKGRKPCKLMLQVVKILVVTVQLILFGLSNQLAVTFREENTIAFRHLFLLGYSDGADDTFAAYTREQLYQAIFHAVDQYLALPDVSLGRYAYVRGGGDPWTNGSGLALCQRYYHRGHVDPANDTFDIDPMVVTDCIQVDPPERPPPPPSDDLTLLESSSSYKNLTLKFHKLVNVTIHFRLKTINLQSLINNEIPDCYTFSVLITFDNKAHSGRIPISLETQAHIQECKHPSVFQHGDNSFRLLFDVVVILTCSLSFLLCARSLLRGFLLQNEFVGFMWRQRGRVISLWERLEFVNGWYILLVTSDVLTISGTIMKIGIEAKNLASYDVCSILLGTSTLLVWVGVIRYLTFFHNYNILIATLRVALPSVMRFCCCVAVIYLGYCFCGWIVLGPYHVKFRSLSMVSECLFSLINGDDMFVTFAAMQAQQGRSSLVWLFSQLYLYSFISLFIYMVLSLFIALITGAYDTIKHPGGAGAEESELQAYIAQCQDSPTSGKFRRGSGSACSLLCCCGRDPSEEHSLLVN
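Calcium fluorescence on an FDSS kinetic reader gave the read-out. Tet-induced TRPML1-DL cells were plated overnight, dye-loaded (Ca8 with quencher, 45-90 min, room temperature, dark), then read 110 s after compound addition, and again 110 s after 4uM final 54-4 (EC80).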
TRPML1 inh = human mucolipin-1 channel inhibition. activity change, negative = inhibition, % (concentration not given with the values). TRPML1-inducible cells, Ca2+ dye fluorescence, FDSS; hits give low values; inhibition of EC80 agonist-evoked calcium signal. AID 624415. Q9GZU1. actives 0.02% (n = 390,000); in the data active means activity change below about -50%; inconclusive means about -30% to -50%; inactive means above about -30%;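 note: stimulus is agonist 54-4 at its EC80 concentration; % is set by controls: 0 for no effect and ±100 for the full control effect; compound concentration not given in the record; the text of the record puts the active cut at -80%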
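Calcium fluorescence in TRPML1-DL cells induced overnight with Tet: a 110 s read after compound pin addition, then a 110 s antagonist read after challenge with 54-4 at 4 uM final (EC80).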
CtBP-E1A inh = inhibitors of CtBP/E1A interaction; AlphaScreen GST-E1A/His-CtBP binding, 1536-well; hits give low values; control for the full effect not named in the record; actives 0.49% (n = 340,000); activity change, % (no concentration beside the values); in the data active means activity change below about -65%; inconclusive means about -30% to -65%; inactive means above about -30%; note: % is set by controls: 0 for no effect and ±100 for the full control effect; compound concentration not given in the record
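In 5 uL wells, 23 nL compound meets equimolar GST-E1A and His-CtBP (5X stock 125 nM each) for 2 h, 37 °C. Beads (5X, 50 ug/mL) then 1 h, 37 °C, dark.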
Six1-Eya2 blk = inhibitors of human Six1/Eya2 interaction; activity change, % (test concentration not listed); actives 0.56% (n = 360,000); AlphaScreen GST-Six1/His-Eya2 binding, biochemical; hits give low values; control for the full effect not named in the record; in the data active = activity change below about -65%; inconclusive = about -30% to -65%; inactive = above about -30%; note: % is set by controls: 0 for no effect and ±100 for the full control effect; compound concentration not given in the record
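AlphaScreen with GST-Six1 and His-Eya2 (5X mix: 250 nM and 500 nM), glutathione donor and nickel acceptor beads; buffer 50 mM Tris pH 8.0, 300 mM NaCl, 1 mM TCEP; 1 h at 37 C in the dark.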
PINK1 modulator = modulators of PINK1 expression | PINK1 immunofluorescence, high-content cytometry, 24 h | Potency, µM (series often up to 76.6 µM), inactives show top-dose activation (PINK1 increase), actives largely listed as activators | actives 0.2% (n = 410,000) | AID 624263; active = well fitted activation curve with a large enough effect; inconclusive = small, poorly fitted or top-dose-only effect; inactive = flat fitted curve, though single readings scatter; cell line not stated here;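 note: potency is the fitted concentration of half-maximal effect; % of control where 0% means no effect; nearly all actives have a fitted effect of over 65% in size; a mitochondrial uncoupler was the plate control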
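A stable cell line was treated with compounds at 5 concentrations for 24 hours, with CCCP as control. PINK1 levels and mitochondrial localization were measured by immunofluorescence with mitochondrial, cell and nuclear markers after fixation, read by laser-scanning cytometry.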
D2 ag = activates the human D2 dopamine receptor | DiscoveRx PathHunter D2 beta-arrestin, luminescence, 90 min; 100% = 57 uM dopamine signal | P14416 | actives 0.084% (n = 360,000) | activation, % (no concentration beside the values); in the data active = activation above about 40%; inconclusive = about 15% to 40%; inactive = below about 15%; note: compound concentration not given in the record; the text of the record calls up to 30% inactive
Target sequence (P14416 whole entry, looked up): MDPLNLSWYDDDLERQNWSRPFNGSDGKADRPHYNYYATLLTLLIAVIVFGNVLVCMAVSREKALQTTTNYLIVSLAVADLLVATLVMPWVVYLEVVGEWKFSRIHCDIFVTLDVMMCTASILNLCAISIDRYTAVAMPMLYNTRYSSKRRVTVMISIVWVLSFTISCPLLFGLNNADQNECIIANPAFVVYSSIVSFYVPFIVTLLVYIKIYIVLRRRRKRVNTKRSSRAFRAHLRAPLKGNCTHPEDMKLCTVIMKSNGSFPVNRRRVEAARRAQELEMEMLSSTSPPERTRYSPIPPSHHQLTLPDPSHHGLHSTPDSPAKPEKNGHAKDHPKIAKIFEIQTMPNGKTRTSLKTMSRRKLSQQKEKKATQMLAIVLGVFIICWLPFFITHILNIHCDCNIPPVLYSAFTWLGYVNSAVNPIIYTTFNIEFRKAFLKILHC
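Agonist mode: compounds alone added to overnight-plated D2 PathHunter cells for 90 min at 37 C, with 57 uM final dopamine (EC100) defining full response. Beta-arrestin recruitment detected by chemiluminescent reagent, read after 1 h at ambient temperature.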
Numbers without * were called inactive; ? = inconclusive; · = not tested or not shown; & = joins results of further samples; [ ] = dose if it differs, or a comment.

Below each compound: TRPML1 ag, TRPML1 inh, CtBP-E1A inh, Six1-Eya2 blk, PINK1 modulator, D2 ag
> Cc1noc(C)c1S(=O)(=O)Nc1ccc(C(=O)NC2CCCCC2C)cc1 (centres undefined)
→ -0.5, -7, 2, 2, -1.3%, -1.4
> Brc1ccc(CN2CCCCCC2)cc1
→ -0.4, 55, 4, 2, -0.7%, -2.1
> CCOC(=O)C1CCN(Cc2nnc(-c3ccccc3C)o2)CC1
→ -0.5, 4, -2, 7, 4.8%, 0.9
> CCN1CCCC1CNC(=O)c1ccc2c(c1)NC(=O)/C(=C\c1ccccc1F)S2 (centres undefined)
→ 0.2, 5, -6, -6, -0.2%, -1.5
> O=C1N/C(=C/c2cccn2-c2ccc(F)cc2)C(=O)N1Cc1ccccc1F
→ 0.9, -11, -6, 0, 18%, 2.4
> CCOC(=O)c1c(Nc2ccccc2)nnc(-c2ccccc2)c1-c1ccccc1
→ 2.8, -11, ·, ·, -3.0%, ·
> COC(=O)c1ccccc1NC(=O)c1cc2sccc2n1C
→ 2.2, 2, 3, 2, 7.2%[38.3 µM], 0.7
> CC(CC(=O)N1CCN(c2ccc(C(F)(F)F)cn2)CC1)n1ccnc1 (centres undefined)
→ 0.5, -13, 18, 7, -1.2%, 5.3
> COc1ccc2c(c1)c(C(=O)N/N=C/c1ccccc1Cl)c(C)n2C
→ 0.1, 2, -2, 2, 0.0%, -1.5
> COc1ccccc1CCNC(=O)CSc1nnc2ccc(-c3cccnc3)nn12
→ ·, ·, 2, -1, 0.4%, -7.3
> Cc1cccc(N2CCN(C(=O)CCCSc3nc4ccccc4[nH]3)CC2)c1C
→ 0.4, 3, 3, -1, 7.7%[38.3 µM], -1.3
> O=c1c2oc3ccccc3c2n(Cc2ccccc2)c(=O)n1Cc1ccco1
→ 1.7, -7, ·, ·, 2.9%, ·
> COc1cc(NC(=O)CN2C(=O)COc3ccc(S(=O)(=O)N4CCCC4)cc32)cc(OC)c1
→ 1.3, 16, -77*, ?, 0.3%, 7.8
> Cc1ccc2c(c1)sc1nc(-c3cc4cc(Cl)ccc4oc3=O)cn12
→ 0.6, -16, ·, ·, 0.3%, ·
> CC(=O)c1ccc(OC(=O)C(CCS(C)(=O)=O)N2C(=O)c3ccccc3C2=O)cc1 (centres undefined)
→ 1.4, 3, -5, 2, 3.5%[38.3 µM], 0.0
> CCOC(=O)Cn1c(=O)oc2ccc(C)cc21
→ 0.7, -13, 3, 3, 0.2%, 0.6
> O=C(CCS(=O)(=O)c1ccc(Br)cc1)N1CCN(c2ccc(Cl)cc2)CC1
→ -0.6, -8, 11, 0, -8.0%[38.3 µM], 1.6
> O=C(CN1CCN(Cc2ccccc2)CC1)NCCc1ccccc1
→ -0.8, 12, 1, 1, -0.7%, -3.2
> O=C(Nc1cc2c3c(c1)CC(=O)N3CCC2)c1ccc(Br)o1
→ -0.8, 9, 4, -8, -1.9%, -4.7
> COc1ccc(-c2cc(NCCc3ccncc3)n3ncnc3n2)cc1
→ -0.2, -13, -12, -1, -2.0%, 0.3
> O=C(/C=C/[C@H]1O[C@@H](n2ccc(=O)[nH]c2=O)[C@H](O)[C@@H]1O)NCC1CCCO1 (some centres undefined)
→ -0.4, -4, 10, 11, 1.2%, -3.9
> CCN1C(=NCCc2ccccn2)N[C@@H](c2cccc(C(F)(F)F)c2)C(C(=O)OC)=C1C
→ -0.5&-0.4, 1, 5, 5, -0.4%&-0.1%, -0.5
> CCN1CCc2c(sc(NC(=O)c3ccc(S(=O)(=O)N4CC(C)OC(C)C4)cc3)c2C(N)=O)C1 (centres undefined)
→ -0.4, -1, -1, 1, 7.9%, -4.3
> O=C(Nc1ccccc1)NC1CCCCNC1=O (centres undefined)
→ -0.3, 23, 0, -7, 0.6%, -4.6
> COc1ccc(S(=O)(=O)N2CCC(C(=O)O)(c3ccccc3)CC2)cc1
→ -0.8, -6, 6, 4, -1.3%, 0.7
> COc1ccccc1CNC(=O)c1ccc(N2CCOCC2)c([N+](=O)[O-])c1
→ 0.8, -5, -4, -2, 0.1%, -18
> Cc1ccccc1CN1CCCN(CC(=O)Nc2ccc3c(c2)OCCO3)S1(=O)=O
→ 0.8, ?, ·, ·, 0.0%, ·
> CCN(c1ccccc1)S(=O)(=O)c1ccc(NC(=O)c2ccco2)cc1
→ 0.4, -4, 0, 2, 2.5%, -3.1
> CCC1CCC2(CC1)SCC(=O)N2c1ccccc1 (centres undefined)
→ 1.9, -14, -3, 20, 0.2%, -2.4
> COc1ccc(C(C(=O)OCCN(C)C)c2ccccc2)cc1 (centres undefined)
→ 0.6, -5, -1, 0, -1.5%, -3.2

The final 3 compounds of the part before lead into the next:
Below each compound: TRPML1 ag, TRPML1 inh, CtBP-E1A inh, Six1-Eya2 blk, PINK1 modulator, D2 ag
> CCN(c1ccccc1)S(=O)(=O)c1ccc(NC(=O)c2ccco2)cc1
→ 0.4, -4, 0, 2, 2.5%, -3.1
> CCC1CCC2(CC1)SCC(=O)N2c1ccccc1 (centres undefined)
→ 1.9, -14, -3, 20, 0.2%, -2.4
> COc1ccc(C(C(=O)OCCN(C)C)c2ccccc2)cc1 (centres undefined)
→ 0.6, -5, -1, 0, -1.5%, -3.2
> O=C1COc2ccccc2CN1
→ -0.6, -25, 0, 0, -0.5%, -4.2
> O=C(NN(C(=O)c1ccccc1)c1cccs1)c1ccccc1
→ -0.8, -4, 5, -3, -1.6%, -0.9
> COc1cc(/C=c2\sc3n(c2=O)CCCN=3)ccc1O
→ 0.8, 15, -2, 1, -1.1%, -4.6
> CC1=C(C(=O)NCc2ccc(Cl)cc2)C2(CCC(C)CC2)OC1=O (centres undefined)
→ -0.8&0.5, 7&5, 4, 4, 0.4%&1.7%, -8.9
> COc1cccc(C(=O)NCC(=O)OCc2cc(=O)n3c(C)csc3n2)c1
→ -0.3, -4, ·, ·, 1.7%, ·
> CCOc1cc(/C=N/NC(=O)c2cccnc2)cc(Br)c1OCC(N)=O
→ -0.2, 2, 0, -20, 0.6%, -3.6
> COc1cc(CNc2ccc3[nH]c(=O)[nH]c3c2)cc(Cl)c1OCc1ccc(F)cc1
→ -0.1, 6, ·, ·, 4.7%, ·
> COc1ccc(S(=O)(=O)Nc2cc3c4c(oc3c3ccccc23)CC(C)(C)CC4=O)cc1
→ -0.5, -4, -2, -3, 0.0%, 9.8
> C=CCNC(=S)NNC(=O)c1cccc(Br)c1
→ 2.3, 3, 1, -1, -2.8%, -4.3
> COc1cc2c(cc1NC(=O)CC1SC(N3CCCC3)=NC1=O)oc1ccccc12 (centres undefined)
→ 0.1, 7, -9, -7, 0.8%, 4.2
> Cn1c(SCc2ccccc2F)nnc1-c1cnccn1
→ 0.0, -14, 0, -3, -2.3%[38.3 µM], -3.6
> O=C(O)C1CCC(=O)N1Cc1ccc(F)cc1 (centres undefined)
→ -0.3, 14, 5, 7, 0.1%[38.3 µM], -0.8
> CCOC(=O)C1=C(C)N(CCCC(=O)O)C(=O)NC1c1ccc(OC)cc1 (centres undefined)
→ -0.4, -3, 2, 7, -0.6%, -1.0
> CCOC(=O)c1c(C)nc(-c2ccccc2)nc1NC(=O)CC
→ 0.8, -12, -1, 16, -3.1%, 1.4
> O=C(/C=C/c1ccc(OC2CSC2)cc1)c1ccc(Cl)cc1
→ 0.5, -2, 19, -11, ?, -1.2
> Cc1ccc(CCNS(=O)(=O)c2c(C)nc3sccn3c2=O)cc1
→ 0.1, -3, 4, 3, -0.5%, -3.4
> CCOc1ccc(S(=O)(=O)NCc2cccn2Cc2cccc(C)c2)cc1
→ 1.3, 18, ·, ·, 2.4%, ·
> Cc1ccnc2nc(C(=O)OCCOc3ccc(Cl)cc3)nn12
→ -0.7, -2, ·, 6, 0.8%, 7.3
> O=C(NC1CC2CCCC(C1)N2Cc1ccccc1)c1cccc(Cl)c1 (centres undefined)
→ -0.4, -5, -2, 1, 0.7%, 0.0
> CCCCOc1cccc(C(=O)Nc2sc3c(c2C(=O)OCC)CCCC3)c1
→ -0.6, -6, ·, ·, -0.3%, ·
> Nc1ccn([C@@H]2O[C@H](CNS(=O)(=O)c3cc4ccccc4s3)[C@@H](O)[C@H]2O)c(=O)n1
→ ·, ·, 7, -2, 1.5%, -1.7
> COc1ccc(NS(=O)(=O)c2cccc(C(=O)N/N=C/c3cccs3)c2)cc1
→ -0.4, 1, 20, 4, 20%, -5.2

In the list so far, 6 have a thiophene ring, fused or not.
Below each compound: TRPML1 ag, TRPML1 inh, CtBP-E1A inh, Six1-Eya2 blk, PINK1 modulator, D2 ag
> COC(=O)c1ccccc1NC(=O)c1cc2sccc2n1C
→ 2.2, 2, 3, 2, 7.2%[38.3 µM], 0.7
> CCN1CCc2c(sc(NC(=O)c3ccc(S(=O)(=O)N4CC(C)OC(C)C4)cc3)c2C(N)=O)C1 (centres undefined)
→ -0.4, -1, -1, 1, 7.9%, -4.3
> O=C(NN(C(=O)c1ccccc1)c1cccs1)c1ccccc1
→ -0.8, -4, 5, -3, -1.6%, -0.9
> CCCCOc1cccc(C(=O)Nc2sc3c(c2C(=O)OCC)CCCC3)c1
→ -0.6, -6, ·, ·, -0.3%, ·
> Nc1ccn([C@@H]2O[C@H](CNS(=O)(=O)c3cc4ccccc4s3)[C@@H](O)[C@H]2O)c(=O)n1
→ ·, ·, 7, -2, 1.5%, -1.7
> COc1ccc(NS(=O)(=O)c2cccc(C(=O)N/N=C/c3cccs3)c2)cc1
→ -0.4, 1, 20, 4, 20%, -5.2

One compound at a time, from the list above:
`COc1ccc(S(=O)(=O)Nc2cc3c4c(oc3c3ccccc23)CC(C)(C)CC4=O)cc1` in the list: TRPML1 ag: -0.5; TRPML1 inh: -4; CtBP-E1A inh: -2; Six1-Eya2 blk: -3; PINK1 modulator: 0.0%; D2 ag: 9.8
`Cn1c(SCc2ccccc2F)nnc1-c1cnccn1` in the list: TRPML1 ag: 0.0; TRPML1 inh: -14; CtBP-E1A inh: 0; Six1-Eya2 blk: -3; PINK1 modulator: -2.3%[38.3 µM]; D2 ag: -3.6
